Bioassay records: PubChem BioAssay, National Center for Advancing Translational Sciences (NCATS)
Vaccinia mCherry: inhibitors of vaccinia virus infection (mCherry reporter signal). Vaccinia virus mCherry reporter infection, fluorescence; about a quarter of the inactives have no number. Potency, µM (top dose mostly 36.5 µM), for the others: at the highest dose activity change, negative = inhibition, hits mostly inhibitors. hit rate 0.63% among 310,000; active = well fitted inhibition curve with a large enough effect; inconclusive = small, poorly fitted or top-dose-only effect; inactive = no such curve, though single readings can be large or run the other way; tested in A549 cells; note: nearly all actives have a fitted effect of over 35% in size; inactives centre near -10
VACV Venus inh: vaccinia inhibition (Venus reporter) | Vaccinia virus Venus reporter expression, fluorescence | Potency, µM (highest dose often 36.5 µM), inactives show at the top dose activity change, negative = inhibition, usual class: inhibitors | hit rate 0.46% among 330,000 | AID 720580; active means well fitted inhibition curve with a large enough effect; inconclusive means small, poorly fitted or top-dose-only effect; inactive means no such curve, though single readings can be large or run the other way; tested in A549 cells; note: nearly all actives have a fitted effect of over 30% in size; inactives centre near -10
The depositor's hits bear a star; i = inactive; ? = inconclusive; · = not tested or not shown; [ ] = another dose, or the depositor's remark. % is set by controls: 0 for no effect and ±100 for the full control effect; potency is the fitted concentration of half-maximal effect.

SMILES	Vaccinia mCherry	VACV Venus inh
Cc1cc([N+](=O)[O-])nn1CCCC(=O)Nc1cc(Oc2ccc(F)cc2)cc([N+](=O)[O-])c1	-3%	-5%
CCOC(=O)C(=O)/C(=C\N(C)C)c1onc(-c2c(F)cccc2Cl)c1C(=O)OC	-14%	-7%
CN(/C(=N\S(=O)(=O)c1ccccc1)c1ccccc1)c1ccc(O)cc1	-8%	-16%
CN(CC(=O)Nc1ccccn1)S(=O)(=O)c1ccc(Cl)cc1	i	-15%
COc1ccc(S(=O)(=O)N2CCCCC2)cc1NC(=O)c1ccc2c(c1)OCO2	-13%	-2%
OC[C@@H]1CN(Cc2ccc(F)cc2)C[C@H](n2cnc3c(Nc4ccccc4)ncnc32)O1	-2%	-1%
CCN(CC)S(=O)(=O)c1ccc(N/N=C/c2ccc(O)cc2)nc1	?	-4%
CC(C)(C)C(=O)Nc1ccc(-c2cn3ccsc3n2)cc1	-14%	-14%
CCN(CCN(C)C)C(=O)C1CCN(S(=O)(=O)c2c(C)noc2/C=C/c2ccccc2F)CC1	i	?
CCc1ccc2[nH]c(C(=O)Nc3ccc4c(c3)OCO4)cc2c1	?	-7%
Cc1cc(C)cc(NC(N)=S)c1	-1%	-14%
COc1ccc(Nc2ccc3c(c2)=NC2(CCCCC2)[N+]=3[O-])cc1	?	?
Cc1cccnc1NC(=O)c1ccccc1NC(=O)C(C)(C)C	-11%	1%
COc1ccc(OCC(=O)NCCS(=O)(=O)N2CCN(c3ccc(F)cc3)CC2)cc1	i	-19%
Cc1ccc(NC(=O)c2oc3ccc(S(=O)(=O)N(C)C4CCCCC4)cc3c2C)cc1Cl	i	-26%
COc1ccc(CNC(=O)CN(c2ccc(C(C)=O)cc2)S(=O)(=O)c2ccc(C)cc2)cc1OC	i	-15%
CCCC1(C(=O)OCC)NC(c2cc(OC)c(OC)c(OC)c2)C2C(=O)N(CC)C(=O)C21 (stereo not given)	-4%	-19%
CCCCCCCNc1cccc(C)c1	-6%	-3%
NC(=O)c1cc(S(=O)(=O)N2CCCCC2)cs1	-13%	-8%
Cn1nccc1C(=O)OCC(=O)Nc1ccc(S(N)(=O)=O)cc1	21%	3%
Cc1cccc(N(C)c2cc(-c3ccc(F)cc3)nc3ccnn23)c1	i	5%
O=C(NC1CC1)c1cccc(NC(=O)c2cnn(-c3ccccc3)n2)c1	-14%	-23%
COc1ccc(S(=O)(=O)Nc2ccc(-n3cnnn3)cc2)cc1Br	-1%	1%
CC(C)(C)SCCNC(=O)c1ccccc1	·	?
CCOC(=O)c1csc(NC(=O)CC2CCCC2)n1	-2%	-12%

Next part; the last 2 above are carried over.
SMILES	Vaccinia mCherry	VACV Venus inh
CC(C)(C)SCCNC(=O)c1ccccc1	·	?
CCOC(=O)c1csc(NC(=O)CC2CCCC2)n1	-2%	-12%
O=C(O)CC(NC(=O)C1CCCCC1)c1ccc(OC2CCCC2)cc1 (stereo not given)	0%	2%
CCN1CCN(C(=S)Nc2ccc3nc4n(c(=O)c3c2)CCCCC4)CC1	-19%	-19%
CCCCCCn1nc(C(=O)OCC(=O)c2c(N)n(C)c(=O)n(C)c2=O)c2ccccc2c1=O	i	-11%
Cc1sc(NC(=O)c2ccco2)c(C(c2ccccc2)N2CCC(C)CC2)c1C (stereo not given)	-10%	-4%
CN1CCCN(C2C3CC4CC(C3)CC2C4)CC1 (stereo not given)	-21%	-10%
CC1CN(S(=O)(=O)c2cc(C(=O)NCCCN3CCCC3=O)ccc2Cl)CC(C)O1 (stereo not given)	-15%	-11%
Cc1nc(N)c(C#N)c(-c2ccccc2)c1C	·	-16%
O=C(N/N=C\c1cc2c(cc1Cl)OCO2)c1cccnc1	-8%	-3%
CC1CN(C(=O)CCC(=O)NCCCN2CCC(Cc3ccccc3)CC2)c2cc(Cl)ccc2O1 (stereo not given)	-19%	-12%
CCCCSC1(SCCCC)N=C(N)C2(C#N)C(c3ccccc3)NC(C)=C(C)C12C#N (stereo not given)	·	-1%
CSCCNC(=O)C1(C)CCN1C(=O)c1ccc(C(C)(C)C)cc1 (stereo not given)	28%	2%
Cc1ccc(C(NC(=O)C2CCN(CCCOc3ccccc3)CC2)c2ccccn2)cc1 (stereo not given)	-7%	-11%
Cc1cc(Br)c(OCc2ccc(C(=O)N/N=C3\CC(=O)CC(C)(C)C3)cc2)c(Br)c1	-16%	-18%
COCCCN(Cc1cc(OC)c(OC)c(OC)c1)C(=S)Nc1cccc(SC)c1	-8%	-28%
CCn1c(C)[n+](Cc2ccccc2)c2ccc(C(=O)OC)cc21	i	-13%
CCc1cccc(CC)c1NC(=S)NCc1nc2ccccc2[nH]1	-12%	-12%
Cn1c(N)c(C(=O)COC(=O)c2cc3ccccc3cc2O)c(=O)n(C)c1=O	i	-6%
Cc1ccsc1/C=N/NC(=O)c1ccccn1	-13%	-9%
CC1N=C2c3ccccc3N=C(SCC(=O)NCCc3ccc(Cl)cc3)N2C1=O (stereo not given)	-9%	-8%
CCC(c1nnnn1-c1ccc2c(c1)OCCO2)N1CCN(C/C=C/c2ccccc2)CC1 (stereo not given)	i	-13%
COc1ccc(CCNC(=O)CCNC(=O)N2CC(=O)Nc3ccccc32)cc1	i	-10%
CCOC(=O)c1cnc2cc3c(cn2c1=O)CCCC3	1%	-8%
Oc1ccc(O)c2c1C1(Cl)C(Cl)=C(Cl)C2(Cl)C1(Cl)Cl	?	-18%
CCN(CC(=O)Nc1ccc(NC(C)=O)cc1)C(=O)CCCc1nc2ccccc2c(=O)[nH]1	-5%	-7%
CC(=O)Nc1ccc(-c2ccnc3c2CC(C(=O)NCC2CC2)O3)cc1 (stereo not given)	11%	-17%
(list continues)
SMILES	Vaccinia mCherry	VACV Venus inh
CCOc1ccc(Nc2cc(C)nc3nc(Cc4ccc(Cl)cc4)nn23)cc1	-18%	-7%
Cc1ccc(/C(N)=N/OC(=O)CCC2CCCC2)cc1	-9%	-15%
Cc1ccc(C(=O)N2CCN(c3ccc(NC(=O)COc4ccccc4C)cc3)CC2)cc1	?	?
CCC(C)(C)n1nnnc1C(c1ccccc1F)N1CCN(C(=O)c2ccco2)CC1 (stereo not given)	-6%	-3%
COC(=O)c1ccc(NC(=O)c2ccc(CN3CCOCC3)cc2)cc1	-8%	-23%
CS(=O)(=O)c1ccccc1NC(=O)COc1ccccc1C(=O)Nc1ccccc1	i	-17%
O=C(CSc1ccc(-c2cccc([N+](=O)[O-])c2)nn1)N1CCCCC1	-6%	-3%
Cc1cc(=O)n2c(n1)OC(CO)C2 (stereo not given)	-13%	2%
O=C(COC(=O)c1ccc(F)cc1Cl)NC1CCCCCCC1	-23%	-4%
Cc1cc(C)cc(NC(=O)CSc2n[nH]c(-c3cccnc3)n2)c1	-15%	-7%
Cn1cnc([N+](=O)[O-])c1SCC(O)CCl (stereo not given)	i	-11%
Cc1nc(C)c(C(=O)NCc2ccc(Cl)cc2)o1	-17%	-10%
CCCCNc1ccc(-c2nc(-c3ccncc3)no2)cc1[N+](=O)[O-]	4%	4%
O=C(CSc1nnc2ccccn12)NC(=O)c1cccc([N+](=O)[O-])c1	i	2%
CC/C=C\C/C=C\C/C=C\CCCCCCCCCCCC(=O)O	-14%[3.33 µM]	-18%[3.33 µM]
COCC(=O)Nc1c(C(=O)Nc2cccc(OC)c2)oc2ccccc12	-9%	-15%
Cc1ccnc2ccccc12	32%[activator]	-7%
O=C(c1ccc(F)cc1)C(CCCCCC(CN1CCOCC1)C(=O)c1ccc(F)cc1)CN1CCOCC1 (stereo not given)	·	-23%
COc1ccc(CCn2c(-n3nc(C)cc3C)nc3c2c(=O)[nH]c(=O)n3C)cc1	-22%	-10%
Cc1cccc(-n2c(O)c(/C=C/C=Nc3ccccc3)c(=O)[nH]c2=O)c1	-12%	34%[activator]
CCOc1ccc(-n2c(C)nc3cc(C(=O)NCCCN4CCOCC4)ccc32)cc1	·	-18%
O=C(Nc1ccccc1)c1cc(C2CCCN(C(=O)C/C=C/c3ccccc3)C2)on1 (stereo not given)	4%	-5%
Cc1cc(O)cc(=O)n1Cc1ccco1	-11%	-18%
Cc1cccc(CNC(=O)C2CCN(c3nn4cc(-c5ccc(F)cc5)nc4s3)CC2)c1	-11%	-16%
COc1ccc(Cn2nnnc2C(c2ccc(N(C)C)cc2)N2CCC(C(N)=O)CC2)cc1 (stereo not given)	i	-9%

Some values from above.
O=C(COC(=O)c1ccc(F)cc1Cl)NC1CCCCCCC1 in VACV Venus inh is entered as -4%
O=C(c1ccc(F)cc1)C(CCCCCC(CN1CCOCC1)C(=O)c1ccc(F)cc1)CN1CCOCC1 (stereo not given) in VACV Venus inh is entered as -23%
CS(=O)(=O)c1ccccc1NC(=O)COc1ccccc1C(=O)Nc1ccccc1 in VACV Venus inh is entered as -17%

Additional compounds
SMILES	Vaccinia mCherry	VACV Venus inh
COc1ccc(NS(=O)(=O)c2ccc(C)c(C(=O)NC3CCN(Cc4ccccc4)CC3)c2)cc1	-10%	-24%
NC(=S)Nc1ccc2cn[nH]c2c1	i	8%
O=[N+]([O-])c1ccc(Sc2cc[n+]([O-])c3ccccc23)c([N+](=O)[O-])c1	?	-32%[7.34 µM]
O=C(CN1CCN(c2ccccc2)CC1)Nc1ccccc1Sc1ccccc1	-6%	-16%
CCOC(=O)C(=CNc1ccc(C(F)(F)F)cc1)C(=O)OCC	-21%	-15%
Cc1ccc(C)c(OCc2cc(C(=O)N3CCN(C(=O)c4ccco4)CC3)no2)c1	-28%	-18%
CCN1CCN(c2nc(Nc3ccc(NC(C)=O)cc3)nc(Nc3ccc(NC(C)=O)cc3)n2)CC1	-28%	-14%
CC(=O)Nc1cccc(NC(=O)Cn2cnc3c(oc4ccccc43)c2=O)c1	-2%	-5%
Cc1ccc(CNC(=O)c2ccc(CN3CC(=O)N4CCCCC4C3=O)cc2)cc1 (stereo not given)	-14%	-13%
CCC(C)(C)NC(=O)C(c1ccc(C)cc1)N(Cc1cccs1)C(=O)c1ccc2c(c1)OCCO2 (stereo not given)	-21%	-11%
O=S(=O)(c1ccc(Cl)c(C(F)(F)F)c1)N1CCN(CC(O)COc2ccccc2F)CC1 (stereo not given)	?	-28%
COc1cc(C(C)n2nnc3ccccc32)ccc1O (stereo not given)	-28%	-5%
CC(=O)N1c2ccc(S(=O)(=O)NCCC(=O)Nc3ncccc3C)cc2CC1C (stereo not given)	-15%	-5%
OCC(O)C(O)[C@H](O[C@H]1OC(CO)C(O)C(O)C1O)[C@H](O)CO (stereo not given in full)	17%	4%
COCCn1nnnc1CN1CCN(C(=O)c2ccco2)CC1	-7%	4%
COc1ccccc1CNC(=O)c1cc(=O)c2ccccc2o1	-12%	-5%
C[C@]12CCC(=O)CC1CCC1C2CC[C@@]2(C)C1CC[C@@]21CCO1 (stereo not given in full)	-15%	2%
Cc1cc(C)c(C(=O)NCCCN2CCOCC2)c(C)c1	-12%	-7%
CCN1C(=NCCc2cccnc2)N[C@@H](c2ccccc2)[C@H](C(=O)OC)[C@H]1C	i	-3%
CCOC(=O)c1cnn(-c2ccc(C(=O)Nc3ccc(OC(F)(F)F)cc3)cc2)c1N	-16%	-5%
COc1cc2ccccc2cc1C(=O)N(CCN(C)C)c1nc2c(C)cccc2s1	-13%	-4%
COc1ccccc1NC(=O)CSc1sc2c(O)cc(=O)[nH]c2c1C#N	-5%	-11%
Cc1ccc(C)c(/C(O)=C2/C(=O)C(=O)N(CCN3CCOCC3)C2c2ccc(C)o2)c1 (stereo not given)	-28%	-16%
CC(C)Oc1ccc(S(=O)(=O)N2CCOCC2)cc1NC(=O)c1cc([N+](=O)[O-])ccc1N1CCOCC1	-27%	-18%
CCCCN(C(=O)C1CCCC1)c1c(N)n(CCC)c(=O)[nH]c1=O	i	-4%
Continued.
SMILES	Vaccinia mCherry	VACV Venus inh
CCCN(CCC)CCNC(=O)c1cc2c(=O)oc3ccc(C)cc3c2s1	-3%	-7%
COC(=O)C1CCN(C(=O)C23CCC(C)(C(=O)O2)C3(C)C)CC1 (stereo not given)	-14%	-2%
CCOC(=O)C1CCCN(S(=O)(=O)c2c(C)c(C)cc(C)c2C)C1 (stereo not given)	-21%	-9%
COc1ccc(OC)c(NC(=O)c2nc3ccccc3s2)c1	1%	6%
COc1ccccc1NC(=O)Cc1csc(N)n1	-10%	-2%
CCOc1ccc(N(CC(=O)N/N=C/c2cccnc2)S(C)(=O)=O)cc1	i	-11%
COc1ccccc1NS(=O)(=O)c1cccc(C(=O)OCC(=O)NC2CC2)c1	i	-10%
O=[N+]([O-])c1ccccc1CS(=O)(=O)c1ccccc1	i	-12%
CN(C(=O)COC(=O)c1cccc(S(=O)(=O)N2CCOCC2)c1)C1CCS(=O)(=O)C1 (stereo not given)	-12%	-3%
Cc1ccccc1-c1cc(C(=O)NCc2ccc(OC(F)(F)F)cc2)n(CC2CC(c3cccnc3)=NO2)n1 (stereo not given)	i	?
COC(=O)c1ccc2oc(=O)c(S(=O)(=O)c3ccc(C)cc3)cc2c1	-7%	7%

Record cards, from the list above. Values in the order: Vaccinia mCherry, VACV Venus inh
CCOC(=O)C1CCCN(S(=O)(=O)c2c(C)c(C)cc(C)c2C)C1 (stereo not given) is entered as -21%, -9%
CCCCSC1(SCCCC)N=C(N)C2(C#N)C(c3ccccc3)NC(C)=C(C)C12C#N (stereo not given) is entered as ·, -1%
CCOc1ccc(Nc2cc(C)nc3nc(Cc4ccc(Cl)cc4)nn23)cc1 is entered as -18%, -7%
CCCCCCCNc1cccc(C)c1 is entered as -6%, -3%
Cc1ccccc1-c1cc(C(=O)NCc2ccc(OC(F)(F)F)cc2)n(CC2CC(c3cccnc3)=NO2)n1 (stereo not given) is entered as i, ?
